Screens as filed in PubChem BioAssay.
2A StopGo: High Throughput Screening for Foot and Mouth Disease Virus Antivirals; 410,000 tested, 1.2% active; human cells with a luciferase reporter of 2A StopGo recoding; control for the full effect not named in the record; Potency, µM (highest dose often 57.9 µM), for inactives: at the highest dose signal change, negative = less light; active = well fitted falling curve with a large enough effect; inconclusive = small, poorly fitted or top-dose-only effect; inactive = no such curve, though single readings can be large or run the other way; tested in HEK293T cells; further: on the % scale 0 is the no-effect control and ±100 the full control effect; nearly all actives have a fitted effect of over 45% in size; luciferase light after 4 h
Cruzain inh Det: qHTS Assay for Promiscuous and Specific Inhibitors of Cruzain (with detergent); Cruzipain (Trypanosoma cruzi), P25779; purified cruzain, Z-FR-AMC fluorescence, 0.01% Triton; Potency, µM, for inactives: max response, negative = inhibition, usual class: inhibitors; 200,000 tested, 0.43% active; AID 1478, 2009;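 further: plate controls were neutral wells for no effect and buffer without enzyme for full effect; nearly all actives have a fitted effect of over 40% in size; top concentration of the series not given in the record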
Target sequence (P25779 123-467 limits assumed): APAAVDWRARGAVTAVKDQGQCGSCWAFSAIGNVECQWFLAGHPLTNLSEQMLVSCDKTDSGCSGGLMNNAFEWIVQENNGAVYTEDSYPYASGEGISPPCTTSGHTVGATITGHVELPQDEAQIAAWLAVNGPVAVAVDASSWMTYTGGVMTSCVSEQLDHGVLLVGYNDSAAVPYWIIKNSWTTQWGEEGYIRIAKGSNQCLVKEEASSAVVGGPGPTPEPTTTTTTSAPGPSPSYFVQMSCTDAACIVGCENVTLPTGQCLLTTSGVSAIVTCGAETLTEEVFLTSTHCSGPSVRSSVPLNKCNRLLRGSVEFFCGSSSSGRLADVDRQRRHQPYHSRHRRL
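Enzyme 1.5 nM, Z-FR-AMC 2 uM, NaOAc 100 mM pH 5.5, DTT 5 mM, Triton X-100 0.01%; 15 min RT compound preincubation; kinetic ex360/em450, 60 s delta.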
Cruzain inh noDet: qHTS Assay for Promiscuous and Specific Inhibitors of Cruzain (without detergent); Cruzipain (Trypanosoma cruzi), P25779; 200,000 tested, 2.3% active; Potency, µM, for the others: max response, negative = inhibition, actives largely listed as inhibitors; AID 1476, 2009; purified cruzain, Z-FR-AMC fluorescence, no detergent;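 further: plate controls were enzyme without inhibitor for no effect and buffer without enzyme for full effect; nearly all actives have a fitted effect of over 40% in size; top concentration of the series not given in the record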
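Detergent-free condition (0.00005% Triton X-100) in acetate buffer pH 5.5 with DTT. 1.5 nM enzyme and compound were pre-mixed 15 min, then 2 uM Z-FR-AMC substrate added; reaction progress from fluorescence change between first and third reads (60 s).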
NS1 inh: qHTS Assay for Inhibitors of Influenza NS1 Protein Function. AID 2326, 2010. S. cerevisiae slowed by influenza A NS1, growth recovery by OD600. Potency, µM (doses to about 46.1 µM), inactives show at the top dose activity, positive = more growth. 270,000 tested, 0.4% active; active means well fitted rising curve with a large enough effect; inconclusive means small, poorly fitted or top-dose-only effect; inactive means no such curve, though single readings can be large or run the other way; further: nearly all actives have a fitted effect of over 50% in size
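S. cerevisiae expressing influenza A NS1, grown in glucose, washed, then diluted 1:100 into pH 6.0 -URA galactose medium with 23 nl compound. Growth recovery read as OD600; NS1-free strain serves as control.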
RE007 growth inh: qHTS Assay for Inhibitors of the HIV-1 protein Vpr; 360,000 tested, 0.21% active; S. pombe RE007 Vpr strain, BacTiter-Glo ATP luminescence, 24 h; control for the full effect not named in the record; Potency, µM (doses to about 92.2 µM), for the others: at the top dose activity change, negative = less growth; active = well fitted falling curve with a large enough effect; inconclusive = small, poorly fitted or top-dose-only effect; inactive = no such curve, though single readings can be large or run the other way;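 further: on the % scale 0 is the no-effect control and ±100 the full control effect; nearly all actives have a fitted effect of over 50% in size; the assay follows cell death caused by Vpr and the record does not say whether a fall means rescue or toxicity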
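Fission yeast RE007 carrying one integrated HIV-1 vpr copy, seeded at OD 0.01 in PMG+AL medium with 23 nL pinned compound. Grown 24 h at 30 degrees; viability read by BacTiter-Glo luminescence after 5 min.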
MARV entry inh: qHTS for inhibitors of binding or entry into cells for Marburg Virus; Potency, µM (titrated, usually from 37.8 µM), for inactives: at the highest dose activity change, negative = inhibition, most hits filed as inhibitors; Marburg virus pseudotyped entry inhibition, cell reporter; control for the full effect not named in the record; about a third of the inactives were read at about 46 µM; 300,000 tested, 1.8% active; active = well fitted inhibition curve with a large enough effect; inconclusive = small, poorly fitted or top-dose-only effect, or effect the other way; inactive = flat fitted curve, though single readings scatter; tested in HEK293 cells; about a fifth of its hits are not listed in these tables; further: on the % scale 0 is the no-effect control and ±100 the full control effect; luciferase read-out
SARS PLP yeast: qHTS of Yeast-based Assay for SARS-CoV PLP; S. cerevisiae expressing SARS-CoV PLpro, growth rescue; control for the full effect not named in the record; Potency, µM (doses to about 32.9 µM), for the others: top-dose activity, positive = growth rescue; 330,000 tested, 0.19% active; AID 485353, 2010; active means well fitted rising curve with a large enough effect; inconclusive means small, poorly fitted or top-dose-only effect; inactive means no such curve, though single readings can be large or run the other way; further: 0% is about no effect; nearly all actives have a fitted effect of over 55% in size; growth read by luminescence after 48 h
Lassa entry inh: qHTS for Inhibitors of binding or entry into cells for Lassa Virus; Lassa virus pseudotype entry inhibition, cell reporter; control for the full effect not named in the record; Potency, µM (series often up to 37.9 µM), for the others: top-dose activity change, negative = inhibition, most hits filed as inhibitors; 300,000 tested, 1.2% active; AID 540256, 2011; active means well fitted inhibition curve with a large enough effect; inconclusive means small, poorly fitted or top-dose-only effect, or effect the other way; inactive means flat fitted curve, though single readings scatter; tested in HEK293 cells; further: on the % scale 0 is the no-effect control and ±100 the full control effect; nearly all actives have a fitted effect of over 50% in size; luciferase read-out
* marks the source's active call; other numbers are inactive results; ? = inconclusive; · = not tested or not shown; & = joins results of further samples; [ ] = dose if it differs, or a comment. Unless noted, the call rests on the fitted dose curve; in most records, active means well fitted curve in the direction sought with a large enough effect; inconclusive means small, poorly fitted or top-dose-only effect, or another doubt; inactive means no such curve, though single readings can be large; an effect the other way counts as inactive or inconclusive. Potency means the concentration at half of the fitted maximal effect.

SMILES	2A StopGo	Cruzain inh Det	Cruzain inh noDet	NS1 inh	RE007 growth inh	MARV entry inh	SARS PLP yeast	Lassa entry inh
CCOC(=O)c1c(C)nc(C)c(C(=O)OCC)c1-c1ccc(OC)cc1	0%	3.7%	14%	3%&-11%	-9%	?	1%&6%	-23%
CCCN(CC1CC1)C(=O)CSc1ncnc2sccc12	-7%	·	·	-3%	0%	·	-1%	·
COc1ccc(C(Nc2ccc(S(=O)(=O)N3CCOCC3)cc2)C(=O)NCCC(C)C)cc1OC (stereo not drawn)	6%	·	·	0%	-1%	6%[46.1 µM]	-1%	-10%
COc1cc(SC)ccc1C(=O)Nc1cc(C)ccn1	-21%	·	·	·	-27%	15µM*	0%	?
CC(=O)c1ccc(OCc2cc(C(=O)N(C)C3CCOC3)no2)cc1 (stereo not drawn)	57%[activator]	·	·	2%	7%	·	0%	·
Cc1cc(C)cc(N2C(=O)CC(Sc3nnnn3-c3ccccc3)C2=O)c1 (stereo not drawn)	?	3.7%	-18%	-29%	-17%	?	-32%	26%[14.3 µM]
COc1ccc(NC(=O)c2cncc(Br)c2)c(S(=O)(=O)N2CCOCC2)c1	-21%	-0.4%	2%	0%	16%	-8%&-8%	-1%	-3%
O=C1NC(=O)C(CCc2ccncc2)(CCc2ccncc2)C(=O)N1CCc1ccccc1	25%	·	·	-9%	-9%	?	0%	?
CCOc1ccc(NC(=O)CSc2nnc3c(C)cc4ccccc4n23)cc1	-21%	1.9%	1%	·	·	3%[46.1 µM]	·	6%[46.1 µM]
CC(NC(=O)C1CCCCC1)C(c1cccs1)N1CCOCC1 (stereo not drawn)	-20%	·	·	4%	-5%	·	-1%	·
COc1cc(/C=N/N2CCN(Cc3ccc(Cl)cc3)CC2)ccc1OC(C)=O	-21%	·	·	-11%	-8%	·	1%	·
O=C(NCCSc1ccc(Cl)cc1)c1ccco1	-11%	1.2%	3%	-164%	?	12%	-23%	14%
O=C(NCCc1ccccc1)C1CCC(CNS(=O)(=O)c2ccc(Cl)cc2)CC1 (stereo not drawn)	31%[activator]	1.6%	-9%	·	·	·	·	?
Cn1cccc1Cc1nnc(SCC(=O)N2CCCC2)n1CCc1ccccc1	12%	5.0%	2%	?	-22%	0%	3%	·
Cc1ccc(-c2nn(-c3cc(N4CCNCC4)ccc3[N+](=O)[O-])c(=O)c3ccccc23)cc1	-28%	·	·	?	-5%	?	0%	?
Cc1ccc(S(=O)(=O)/N=C(/c2ccccc2)N2CCOCC2)c(C)c1	39%[activator]	·	·	-4%	11%	?	0%	-3%[46.1 µM]
COc1ccccc1N(C)S(=O)(=O)c1ccc(C(=O)N2CCC(C(N)=O)CC2)cc1	-27%	-0.8%	-9%	-3%	25%	6%	2%	4%
CCN(CC)CCn1c(SCC(=O)NCc2ccco2)nc2c(sc3ccccc32)c1=O	-16%	-22%	?	3%	-5%	?	0%	?
c1ccc(Nc2nc(N3CCCCC3)nc(N3CCNCC3)n2)cc1	·	-1.5%	3%	-5%	7%	7.3µM*	0%	?
O=C(NCc1ccc(F)cc1)c1cc2n(n1)CCCN(Cc1ccc(F)cc1)C2=O	-17%	-2.4%	-14%	·	·	-2%[46.1 µM]	·	·
S=c1[nH]nc(-c2n[nH]c3c2CCC3)n1/N=C/C=C/c1ccccc1	-18%	·	·	10%	8%	·	-1%	·
Cc1cccc(-c2c3c(=O)n(C)c(=O)n(C)c3cn2-c2ccccc2O)c1	0%	-0.4%	-17%	-102%	-6%	2%	-15%	?
COc1cccc(N2CC(NC(=O)c3ccc(S(=O)(=O)N4CCCC4)cc3)CC2=O)c1 (stereo not drawn)	-1%	-2.1%	1%	·	·	·	·	5%[46.1 µM]
Oc1cccc2oc(=S)[nH]c12	2%	·	·	·	0%	8%[46.1 µM]	·	0%[46.1 µM]
COc1cc2ncnc(NCc3ccc(C)o3)c2cc1OC	-28%	·	·	0%	-4%	·	1%	·
Cc1ccc(N(CC(=O)NCc2ccccc2)C(=O)CCC(=O)Nc2nccs2)cc1	-18%	·	·	3%	-4%	-23%[46.1 µM]	4%	-22%
CCOc1ccccc1NC(=O)CC1(CC(=O)N2CCOCC2)CCCC1	-31%	·	·	·	6%	5%[46.1 µM]	-9%	-9%
COc1ccccc1C(=O)Nc1ccc(S(=O)(=O)Nc2onc(C)c2C)cc1	2%	·	·	-5%	-5%	·	0%	·
CN(C)c1ccc(C(=S)NCc2ccco2)cc1	16µM*	-6.3%	-10%	-63%	-16%	?	-4%	?
Cc1cc2ccccc2n1-c1ccc(C(=O)N2CCCCC2)s1	-12%	-2.0%	-5%	·	·	·	·	-30%[46.1 µM]
CC1CCN(c2c(NCC3CCC(C(=O)NCc4ccccc4)CC3)c(=O)c2=O)CC1 (stereo not drawn)	-14%	-3.5%	1%	-48%	-10%	-4%	4%	-5%
CC(=O)c1ccc(C(=O)NC2CCCN(Cc3ccc(Cl)cc3)C2)s1 (stereo not drawn)	5%	·	·	11%	-22%	2%	1%	-15%
CCCC(CCC)C(=O)OC[N+](C)(C)CCOC(=O)C(O)(c1ccccc1)C1CCCC1 (stereo not drawn)	9%	·	·	-5%	13%	·	0%	·
Cc1ccc(CC(=O)Nc2ccc(Cl)cn2)cc1	50%[activator]	·	·	-12%	-18%	·	-18%	·
Cn1ccc(C(=O)Nc2sc3c(c2C#N)CCC3)n1	16%	·	·	-28%	0%	·	-5%	·
C#CCOCCOCCOCCNc1nc(N2CCOCC2)nc(N2CCN(C(=O)[C@H]([C@@H](C)CC)n3cc([C@@H](N)CC(C)C)nn3)CC2)n1	-10%	·	·	1%	0%	·	1%	·
Cc1[nH]cc(Br)c(=O)c1Oc1ncc(C(F)(F)F)cc1Cl	-6%	·	·	·	3%	22%[46.1 µM]	1%	1%[46.1 µM]
S=C(NC1CCCC1)NC1CCCC1	-2%	·	·	0%	-4%	·	0%	·
O=S(=O)(/C=C/c1ccccc1)N1CCN(c2nc(-c3cccnc3)nc3ccccc23)CC1	-20%	·	·	10%	-19%	11µM*	-1%	?
Cc1nc(/C=C\C(=O)O)c2cc(C)oc2n1	-17%	·	·	·	24%	?	-1%	6%
Cc1cc(Nc2ccc(C(C)C)cc2)nc(-n2nc(C)cc2C)n1	-24%	-7.9%	?	·	·	·	·	?
COC(=O)CN(c1ccc(C)cc1)S(=O)(=O)c1c(C)[nH]c(=O)[nH]c1=O	·	-1.4%	9%	-6%	-14%	-3%	13%	16%
Cc1cc(C)cc(NC(=O)CN2CCN(c3ccccn3)CC2)c1	-20%	·	·	-18%	-8%	-8%	12%	3%
COC(=O)c1sc(N(C)C)c(C#N)c1-c1ccccc1	-14%	·	·	-9%	-21%	?	-1%	2%
Cc1ccc(S(=O)(=O)c2nc(S(=O)(=O)c3ccc(C)cc3)c(N3CCN(CCO)CC3)s2)cc1	6%	·	·	-13%	0%	·	3%	·
CCN=c1sc(C(=O)NCCc2ccccc2)cc(=O)n1CC	?	4.5%	5%	-51%	-6%	?	-7%	?
CC(/C=N/N1CCN(c2ccccc2)CC1)=C\c1ccco1	0%	6.5%	?	-2%	-23%	?	-7%	16%
COc1ccc(F)cc1C(=O)C1CCCN(C(=O)C2=C(C)OCCO2)C1 (stereo not drawn)	-21%	·	·	-2%	7%	·	-3%	·
COC(=O)C1=C(C)NC(C)=C([N+](=O)[O-])[C@H]1c1ccccc1C(F)(F)F	0%	-5.9%	-2%	·	·	-6%&-6%	·	·
CCOC(=O)CCc1c(C)c2ccc(OCc3cc([N+](=O)[O-])ccc3OC)c(C)c2oc1=O	·	-3.9%	5%	7%	·	-29%	10%	3%
CCc1nn(CC(=O)N2CCCCC2)c(=O)c2cc3occc3n12	-18%	-3.2%	-10%	·	·	2%[46.1 µM]	·	?
CCCn1cc(CN2CCc3ccc(NC(=O)C4CCCO4)cc3C2)c(C)n1 (stereo not drawn)	-14%	·	·	24%	6%	19%	-1%	-2%
Cc1ccnc(NC(=S)NC(=O)/C=C/c2ccco2)c1	23%	-16%	-8%	-13%	-25%	·	?	-25%
C=CCn1c(SCc2ccc(Cl)cc2)nc2c1c(=O)[nH]c(=O)n2C	?	-3.3%	-24%	0%	16%	?	-1%	?
Cc1nc2c(-c3ccc(F)cc3)cnn2c2c1CCC2	11%	·	·	·	-10%	?	1%	?
CCCCC[C@H](O)/C=C/C1=C(CCCCCCC(=O)O)C(=O)CC1	-23%	-5.9%&0.1%	?	10%	7%	-35%	1%	-5%
Cc1ccc(-c2ccc(SCC(=O)N3CCN(c4ccccc4)CC3)nn2)cc1	1%	-2.3%	-10%	-5%	-4%	20%	3%	0%
Cc1cccc(C)c1NC(=O)C(=O)NCC1CCCN1S(=O)(=O)c1cccs1 (stereo not drawn)	1%	·	·	·	29%	2%[46.1 µM]	-2%	3%
COc1ccc(C2(c3ccc(OC)cc3)NC(=O)N(CC(=O)N(C)C)C2=O)cc1	-9%	·	·	-9%	-12%	-17%[46.1 µM]	1%	-7%[46.1 µM]
CC(C)C[C@@H]1NC(=O)[C@H](C(C)C)NC(=O)c2cc([N+](=O)[O-])cc(I)c2NCC[C@@H](C(N)=O)NC1=O	-27%	14µM*	5%	?	-15%	-7%	-14%	2%

Next part:
SMILES	2A StopGo	Cruzain inh Det	Cruzain inh noDet	NS1 inh	RE007 growth inh	MARV entry inh	SARS PLP yeast	Lassa entry inh
O=S(=O)(c1ccc(N2CCN(S(=O)(=O)c3ccc4c(c3)OCCO4)CC2)nc1)N1CCCC1	?	-0.7%	0%	4%	-6%	-14%&-14%	1%	?
CCN(CC)c1ccc(N=Cc2c(O)n(CCC3=CCCCC3)c(=O)[nH]c2=O)cc1	4%	-0.3%	-13%	5%	-2%	?	-9%	-22%
O=C(Nc1ccccc1C(=O)O)c1cc(S(=O)(=O)NCc2ccccc2)ccc1Cl	6%	·	·	16%	8%	1%[46.1 µM]	1%	-1%[46.1 µM]
O=C(COC(=O)Cc1ccsc1)NC1CCCCCC1	4%	5.1%	7%	-6%	-31%	1%	2%	-7%
